Source: PubChem BioAssay (several laboratories)
Mot1-301 SUMO = inhibitors of SUMOylation pathway: yeast Mot1-301 growth rescue | S. cerevisiae Mot1-301 growth rescue, ATP luminescence, 38.5C; percent above DMSO median, 100 means doubled | growth rescue, % at 18.8 µM | hit rate 1% among 320,000;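 active = every valid replicate shows activation above 250% relative to neutral control wells; inactive = the rest, any valid replicate at or below 250%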;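 also: OY570 slx delta 5 strain wells were the positive control but not used for scaling; some compounds called inactive have numbers as strong as hits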
E coli growth = counter-screen for AddAB inhibitors: E. coli growth inhibition | E. coli V3065 growth, OD600 absorbance, 18 h | inhibition, % at 11.9 µM | hit rate 0.27% among 330,000;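 active = inhibition above the campaign's mean inhibition across all tested compounds plus 3 SD, cut at about 9.9% in these data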;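 also: uninfected addAB+ strain grown without phage in ampicillin broth; 0% = DMSO wells and 100% = ciprofloxacin 0.95 µg/ml wells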
phage Ecoli inh = E. coli growth loss with phage present | growth absorbance | inhibition, % at 11.9 µM | hit rate 0.26% among 360,000; in the data active = inhibition above about 11%
PfHsp90 yeast 2 = reduces growth (ATP signal) of yeast expressing P. falciparum Hsp90 | S. cerevisiae expressing PfHsp90, BacTiter-Glo ATP, 48 h; yeast lacking PDR1 and PDR3 efflux regulators | inhibition, % at 9.4 µM | hit rate 0.32% among 310,000 | AID 504621;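 active = every replicate shows inhibition above about 80%, whatever the replicate mean, limit read from the data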;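 also: 0% = DMSO neutral controls and 100% = 20 µM radicicol positive controls; yeast relying on Plasmodium falciparum Hsp90 in place of its own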
DSG3 Ab inh = inhibitors of pemphigus antibody binding to human desmoglein-3. P32926. DSG3-coupled beads, scFv-anti-DSG3-GFP binding, flow cytometry; hits give low values. binding (percent of control), % at 10 µM. hit rate 0.48% among 310,000. AID 588358;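 active = binding more than 3 SD below its plate's average and above zero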;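 also: hits lower antibody fragment binding to DSG3; some compounds called inactive have numbers as strong as hits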
Target sequence (P32926 whole entry, looked up, the tested form may be a part): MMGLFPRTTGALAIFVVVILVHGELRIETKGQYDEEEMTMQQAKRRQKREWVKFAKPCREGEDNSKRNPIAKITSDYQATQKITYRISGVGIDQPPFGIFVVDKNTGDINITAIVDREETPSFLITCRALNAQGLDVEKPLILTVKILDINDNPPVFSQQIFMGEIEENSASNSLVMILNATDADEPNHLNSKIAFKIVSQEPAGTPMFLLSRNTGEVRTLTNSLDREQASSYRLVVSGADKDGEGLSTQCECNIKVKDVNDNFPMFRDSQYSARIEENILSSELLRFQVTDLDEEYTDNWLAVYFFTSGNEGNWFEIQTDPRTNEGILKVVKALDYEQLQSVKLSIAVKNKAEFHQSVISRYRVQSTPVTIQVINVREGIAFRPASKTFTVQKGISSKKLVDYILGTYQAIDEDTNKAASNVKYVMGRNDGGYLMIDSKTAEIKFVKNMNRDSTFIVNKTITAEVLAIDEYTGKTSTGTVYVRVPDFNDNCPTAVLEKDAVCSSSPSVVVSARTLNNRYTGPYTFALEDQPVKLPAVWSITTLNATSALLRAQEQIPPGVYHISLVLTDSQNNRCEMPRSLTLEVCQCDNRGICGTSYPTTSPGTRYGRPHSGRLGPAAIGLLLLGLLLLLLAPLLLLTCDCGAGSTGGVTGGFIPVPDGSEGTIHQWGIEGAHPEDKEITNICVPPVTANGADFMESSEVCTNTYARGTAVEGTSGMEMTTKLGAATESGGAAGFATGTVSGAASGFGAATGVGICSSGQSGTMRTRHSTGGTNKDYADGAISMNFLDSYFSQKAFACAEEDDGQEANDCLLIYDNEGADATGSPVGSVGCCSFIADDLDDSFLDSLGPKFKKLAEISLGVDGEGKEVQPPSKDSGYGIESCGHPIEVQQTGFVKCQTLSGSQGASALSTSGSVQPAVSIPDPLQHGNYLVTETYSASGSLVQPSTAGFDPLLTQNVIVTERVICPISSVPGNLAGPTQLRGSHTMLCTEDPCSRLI
PKA-R1A act = activators of PKA-R1A complex | PKA-R1A dissociation, Cy5-IP20 fluorescence polarization; scaled: DMSO 0%, 113 µM cGMP 100% | activation, % at 11.4 µM | hit rate 0.083% among 340,000;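 active = percent activation above the mean of all tested compounds plus 3 SD, cut at about 19% in these data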;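 also: higher means more PKAc released from R1A so a rise in polarization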
AddAB inh = less growth of phage-infected E. coli with AddAB; inhibition, % at 11.9 µM; AID 435030; hit rate 0.29% among 330,000; E. coli expressing H. pylori AddAB, absorbance growth; in the data active = inhibition above about 12%;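 also: 0% = vehicle wells of infected cells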
* marks the source's active call; other numbers are inactive results; & = joins results of further samples. The list is partial; the hit share may differ from the screen's.

Screening CCCN1CCC[C@@H]2Cc3[nH]ncc3C[C@H]21 returned Mot1-301 SUMO 13, E coli growth -4.1, phage Ecoli inh 2.9, PfHsp90 yeast 2 -18, DSG3 Ab inh 100, PKA-R1A act -7 and AddAB inh -2.1.
Screening Oc1ccc2c3c1OC1c4[nH]c5ccccc5c4C[C@@]4(O)C(C2)N(CC2CC2)CC[C@]314 (stereo not given in full) returned E coli growth -2.4, phage Ecoli inh 1.9, DSG3 Ab inh 99, PKA-R1A act 1 and AddAB inh -0.5.
For C=CCN1CC[C@]23c4c5ccc(O)c4OC2C(O)C=CC3[C@H]1C5 (stereo not given in full) the results were E coli growth 1.8, phage Ecoli inh 1.4, DSG3 Ab inh 100, PKA-R1A act 12 and AddAB inh 0.0.
`COc1ccc(CN2CCNCC2)c(OC)c1OC` gave Mot1-301 SUMO -7&-8, E coli growth 0.3&0.6, phage Ecoli inh 2.2&2.6, PfHsp90 yeast 2 0&7, DSG3 Ab inh 107&120, PKA-R1A act -1&1 and AddAB inh -1.4&-1.6.
For CN(C)[C@@H]1C(=O)C(C(N)=O)=C(O)[C@@]2(O)C(=O)C3=C(O)c4c(O)cccc4[C@@](C)(O)[C@H]3C[C@@H]12 the results were Mot1-301 SUMO 5, E coli growth -0.9 and AddAB inh -0.8.
Screening COC12CCC3(CC1C(C)(O)C(C)(C)C)[C@H]1Cc4ccc(OC5OC(C(=O)O)[C@@H](O)C(O)[C@H]5O)c5c4[C@@]3(CCN1CC1CC1)C2O5 (stereo not given in full) returned E coli growth 1.7, phage Ecoli inh -0.5, DSG3 Ab inh 104, PKA-R1A act 4 and AddAB inh 0.2.
For Oc1ccc2c3c1O[C@H]1c4[nH]c5ccccc5c4C[C@@]4(O)[C@@H](C2)N(CC2CC2)CC[C@]314 the results were Mot1-301 SUMO -1, E coli growth -2.2, phage Ecoli inh 2.7, PfHsp90 yeast 2 -3, DSG3 Ab inh 103, PKA-R1A act 5 and AddAB inh 0.9.
Oc1ccc2c3c1OC1C(O)CC[C@@]4(O)[C@@H](C2)N(CC2CCC2)CC[C@]314 (stereo not given in full) was read as Mot1-301 SUMO 29, E coli growth -2.0 and AddAB inh -2.7.
`CCN[C@@H](C)Cc1cccc(C(F)(F)F)c1` gave E coli growth 1.3, phage Ecoli inh 0.5, DSG3 Ab inh 104, PKA-R1A act 2 and AddAB inh -2.0.
`C[C@@H]1CCC2[C@@H](C)C(=O)O[C@@H]3OC4(C)CCC1[C@@]23OO4` (stereo not given in full) gave Mot1-301 SUMO 47, E coli growth -0.9 and AddAB inh 1.7.
Screening C[C@@H]1CC[C@H]2[C@@H](C)C(=O)O[C@@H]3O[C@@]4(C)CC[C@@H]1[C@]32OO4 returned Mot1-301 SUMO 85, E coli growth -1.2, phage Ecoli inh 2.3, PfHsp90 yeast 2 17, DSG3 Ab inh 96, PKA-R1A act -12 and AddAB inh 3.7.
For C#C[C@]1(O)CC[C@H]2[C@@H]3CCC4=CC(=O)CC[C@]4(C)[C@H]3CC[C@@]21C the results were Mot1-301 SUMO 3&151, E coli growth 0.4, phage Ecoli inh 3.5, PfHsp90 yeast 2 4, DSG3 Ab inh 106, PKA-R1A act 0 and AddAB inh -4.6.
Screening C=CCN1C[C@H](C)N(C(c2ccc(C(=O)N(CC)CC)cc2)c2cccc(OC)c2)CC1C (stereo not given in full) returned phage Ecoli inh 0.4.
COc1ccc2c3c1OC1C(O)C=CC4[C@@H](C2)N(C)CC[C@]314 (stereo not given in full) was read as E coli growth -1.5, phage Ecoli inh 1.3, DSG3 Ab inh 100, PKA-R1A act 12 and AddAB inh -2.7.
Clc1ccc(COC(Cn2ccnc2)c2ccc(Cl)cc2Cl)cc1 (stereo not given) was read as Mot1-301 SUMO 57, E coli growth -0.9, phage Ecoli inh 4.1, PfHsp90 yeast 2 83*, DSG3 Ab inh 105, PKA-R1A act -5 and AddAB inh 2.8.
